PrP 5UTR inh – suppresses PrP 5' UTR mRNA reporter expression | hit rate 0.35% among 340,000 | AID 488862 | inhibition, % (no concentration beside the values) | cell-based PrP 5' UTR mRNA reporter, plate reader;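 active = every replicate at 50% or more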;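 also: 0 = median of the neutral control wells; tested in H4 reporter cells; numbers are from one replicate; inactives centre near -14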
Sa ugtP lethal – kills S. aureus RN4220 lacking UgtP. S. aureus RN4220 ugtP deletion, OD600 growth, 16 h; some inactives read as strong as hits. growth inhibition, % (no concentration beside the values). hit rate 0.54% among 330,000. AID 1259309;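 active = z-score under -3 and OD600 up to 0.15 on both plates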;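 also: plate controls were untreated wells for no effect and antibiotic for full effect; wells of about 80 µL received 100 nL stock; the first replicate is given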
Mtb hypoxia inh – reduces hypoxia-regulated biosensor signal in M. tuberculosis; M. tuberculosis hypoxia-regulated fluorescent reporter, fluorescence; fluorescence inhibition, % (concentration not given with the values); hit rate 0.1% among 300,000; AID 1159583;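 active = 35 to 45% if threefold the growth effect, above 45% if 1.5-fold the growth effect; inactive = the rest, general growth blockers included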;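 also: wells of about 50 µL received 100 nL stock; 0% = vehicle wells and 100% = reference inhibitor wells; whole bacteria with a GFP reporter of the hypoxia response; strong numbers were not always called active; many hits fall short of the cut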
BJeLR viability – BJeLR cell viability loss | AID 1554 | inhibition, % (test concentration not listed) | BJeLR (HRASV12) viability, CellTiter-Glo ATP luminescence, 48 h; reference of the scale not given here | hit rate 0.17% among 300,000;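 active = replicate mean above 50%; inconclusive = above 50% but judged a plate artefact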;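 also: 50 nL library stock added to about 25 µL; numbers are from one replicate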
Autofluor counter – counter-screen for toxin protease inhibitors: compound fluorescence. compound autofluorescence counterscreen, microsphere flow cytometry; hits give high values. fluorescence intensity (test concentration not listed). hit rate 3.1% among 360,000;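 active = at least 3 SD above the mean of all compounds, about 16000 in these data; inconclusive = too few beads counted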;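 also: 100 nL of 1 mM stock went into each well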
Sa RN4220 lethal – S. aureus RN4220 growth inhibition. hit rate 0.33% among 330,000. OD600, 16 h. inhibition, % (test concentration not listed). AID 1259311;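 active = z-score of -3 or lower and OD600 up to 0.18 on both plates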;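 also: plate controls were untreated cells for no effect and reference antibiotic for full effect; stock transfer was 100 nL into about 80 µL; one replicate is shown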
Mtb hypoxia inh growth – recorded beside Mtb hypoxia inh, whose call it bears; growth inhibition, %; measured here: M. tuberculosis growth (absorbance);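 0% = vehicle and 100% = reference antibiotic; read after six days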
The depositor's hits bear a star; ? = inconclusive; · = not tested or not shown; & = joins results of further samples.

SMILES	PrP 5UTR inh	Sa ugtP lethal	Mtb hypoxia inh	Mtb hypoxia inh growth	BJeLR viability	Autofluor counter	Sa RN4220 lethal
Cc1cccc(C)c1NC(=O)CNCC(=O)Nc1c(C)cccc1C	-11.4	3.5	4.4	3.7	-10.2	3887	-0.4
CC1=CC(=C(c2ccc(O)c(C)c2)c2ccccc2S(=O)(=O)O)C=CC1=O	·	9.2&7.4	10.4	18.4	·	·	0.1&4.0
CC(=O)c1ccc(Nc2nc(C)cc(C)n2)cc1	-31.3	2.7	-5.9	11.3	-7.1	4474	3.0
COCCN(C(=O)c1c(C)noc1C)c1c(N)n(CC(C)C)c(=O)[nH]c1=O	-24.3	-0.3	7.4	-0.8	·	3774	8.1
COc1ccc(CN2CCCC(CO)(Cc3ccc(F)cc3)C2)c(OC)c1OC (configuration not stated)	-3.1	-1.7	3.4	13.7	-2.6	4313	-2.1
O=[N+]([O-])c1ccc(Cl)c(-c2ccc(/C=N/c3c(-c4ccco4)nc4ccccn34)o2)c1	-8.4	·	·	·	7.1	3858	·
COc1cccc2oc3ccc(C#CC4(N)CCCCC4)cc3c(=O)c12	-53.8	3.2	-4.7	6.3	-3.4	4044	1.2
O=C(NCC1CCCO1)c1ccccc1 (configuration not stated)	-13.8	5.7	21.8	10.6	-5.0	4142	4.9
CC(Oc1ccc(-c2ccccc2)c(F)c1)c1ccn(S(=O)(=O)c2cccc3ccccc23)n1 (configuration not stated)	-27.5	10.1	4.7	-8.8	1.3	4543	-4.0
Cc1cc(C)nc(SCc2nnc(SCC(=O)Nc3ncc(C)s3)n2Cc2ccco2)n1	4.5	5.9	9.6	4.1	-13.5	3349	3.7
OC(CN1CCCCCC1)CN(c1ccccc1)c1ccccc1 (configuration not stated)	-7.0	-0.2	5.5	-4.5	6.0	4553	-3.0
N#Cc1ccsc1NC(=O)COC(=O)c1ccc(NC(N)=O)cc1	-70.7	2.8	13.8	12.2	-0.6	4494	-2.3
CN1CCN(CCC(=O)Nc2ccccc2)CC1	-14.2	16.1	13.9	7.0	-5.9	3441	2.8
COc1ccc(C(=O)OC(C)CN2CCOCC2)cc1OC (configuration not stated)	-5.6	5.6	11.0	1.0	-1.8	2596	1.8
Cc1occc1-c1nnc(SCCCC(=O)c2ccc(F)cc2)n1C	-8.4	-3.5	16.0	9.4	-2.4	2429	-9.2
CCOc1c(C)cnc2c1c(=O)n(Cc1ccccc1Cl)c(=O)n2C	-25.0	1.8	16.4	12.7	-14.6	5260	2.7
Cc1c(C(=O)O)oc2c1C(=NO)CC(C)(C)C2	·	11.0	5.6	9.7	·	·	7.2
CCC(=O)Nc1cc2[nH]c(=O)cc(C)c2cc1C	-17.3	3.7	1.9	8.5	8.9	3931	1.2
Cc1[nH]nc(SCC(=O)N2CCCC2)c1[N+](=O)[O-]	-8.7	0.2	17.8	13.5	5.6	4718	4.1
COC(=O)[C@@]12CCCCN1[C@H](c1ccc(-c3ccccc3)cc1)[C@H]1C(=O)N(C)C(=O)[C@H]12	-4.4	·	·	·	-8.7	4099	·
C[C@H](OC(=O)N1CCN(C(c2ccccc2)c2ccccc2)CC1)[C@@H]1O[C@@]2(C)CCC[C@H]1O2	8.1	·	·	·	-4.5	3332	·
CCCc1nc2sc3c(c2c(=O)n1NC(=O)c1ccco1)CC(C)(C)OC3	0.6	2.9	-2.7	10.6	-9.0	2032	-0.6
Cc1ccc(C(=O)N2CCN(c3ncc(C(F)(F)F)cc3Cl)CC2)s1	-6.5	6.8	0.4	5.9	-2.0	4323	2.0
O=C(COC(=O)c1ccc(Cl)nc1)Nc1ccc(N2CCCCC2)cc1	-34.0	-0.9	13.0	5.7	·	3365	-0.4
COC(=O)c1nn(-c2ccc(-c3ccccc3)cc2)cc1O	-9.4	-16.1	23.5	-19.7	10.5	3455	-5.6
O=C(OCC(=O)N1CCc2ccccc21)c1cncc(Br)c1	-5.2	6.0	9.3	0.7	6.4	6080	2.6
COc1cc([N+](=O)[O-])cc2cc(C(=O)N3CCN=C3c3ccccc3)c(=O)oc12	-23.8	2.4	8.6	2.6	1.9	4524	0.9
COCC(C)NS(=O)(=O)c1ccc(C(=O)NC(Cc2ccccc2)c2ccccc2)cc1 (configuration not stated)	-2.2	·	·	·	-11.5	3494	·
Nc1cccc(C(=O)N/N=C/c2ccsc2)c1	-15.1	·	·	·	-0.7	4734	·
COc1ccc(S(=O)(=O)N2CCCC(C(=O)N3CCOCC3)C2)cc1Cl (configuration not stated)	-1.3	4.6	-1.2	-1.0	3.0	?	2.6
CCOc1cccc2cc(C(=O)OCC(=O)Nc3c(C)cccc3CC)c(=O)oc12	-44.9	7.5	-1.8	-5.4	·	5559	3.0
O=C(COC(=O)CCS(=O)(=O)c1ccc(Cl)cc1)NCCc1ccc(Cl)cc1Cl	-13.7	-8.7	9.2	1.4	5.5	2675	6.0
O=C(Nc1ccc2c(c1)OCO2)C1CCCCN1S(=O)(=O)c1ccc(F)cc1 (configuration not stated)	-23.3	5.0	8.3	9.4	-9.3	4025	6.4
CC(=O)Nc1cc(C(=O)N2CCN(C)CC2)ccc1S(=O)(=O)c1ccc(C)cc1	-1.4	3.2	1.6	-3.5	·	7834	3.2
CO/N=C(\C(=O)O)c1csc(NN=C(C)C)n1	-28.7	·	·	·	-10.0	4678	·
CCC(=O)N1c2ccc(S(=O)(=O)CCC(=O)Nc3ccc(OC)cc3OC)cc2CC1C (configuration not stated)	-14.1	3.9	-4.9	-0.4	-2.1	5121	3.6
Cc1ccc(C(C)C)c(OCC(O)CN(C)Cc2ccccc2)c1 (configuration not stated)	-22.8	1.3	5.7	-1.5	1.0	4036	3.5
COc1ccc(-c2csc(N3CCN(c4cc5c(cc4Cl)nc(-c4ccncc4)n5CCOCCO)CC3)n2)cc1	9.2	-13.9	0.3	7.6	-0.8	4012	3.9
CCCSc1nnc(Nc2ccccc2C)s1	-47.3	5.0	·	·	3.2	4675	6.1
COc1cc(NC(=S)NCc2cccnc2)cc(OC)c1OC	-4.0	-3.1	3.5	6.5	3.2	2444	4.8
CN(C)C(=O)CCc1ccc2c3c([nH]c2c1)[C@]1(C)[C@@H](C(=O)N2CCCCC2)C[C@H](CC(=O)NC(C)(C)C)C(=O)N1CC3	-0.8	9.1	-3.4	-4.5	·	4010	1.8
Cc1nn(CCC(=O)NCc2ccc(OC(C)C)cc2)c(=O)c2nn(-c3ccccc3)c(C)c12	-3.9	6.6	14.5	2.4	-17.0	5913	2.8
Fc1ccc(C2CCCN2Cc2nc(CC3CC3)no2)cc1 (configuration not stated)	-10.4	-0.4	8.5	7.3	1.4	4649	2.7
O=C(NC(=S)Nc1nc2c(ccc3ccccc32)s1)c1cccs1	-15.9	·	·	·	4.6	2417	·
O=C(C1CC(=O)N(c2ccccc2)C1)N1CCN(c2ccc(F)cc2)CC1 (configuration not stated)	-13.6	4.6	-2.3	10.2	9.6	5266	-2.8
Cc1cc(C(=O)NCCC(C)C)c2ccccc2n1	-3.4	-1.0	8.5	1.5	2.9	5082	0.1
Cn1cnc2ncnc(Oc3ccc(Br)cc3)c21	-4.5	2.4	5.7	5.7	·	4636	3.2
Cc1c(C(=O)Nc2ccccc2F)cnn1-c1ccccc1	-42.2	6.6	1.2	2.0	1.4	3715	4.3
CO/N=C(\CCC(=O)O)c1cccs1	-1.5	·	·	·	2.1	3559	·
O=C(c1cc2ccccc2oc1=O)N(Cc1ccccc1)Cc1ccc2c(c1)OCO2	-4.1	-9.8	16.6	2.7	2.5	4397	8.6
COC(=O)CSc1nc2nc(-c3cccs3)cc(C(F)(F)F)c2c(=O)[nH]1	-2.6	-9.2	-1.3	1.3	-5.7	3577	3.7
O=C(CSc1c(Cl)cccc1Cl)NC1CCCc2ccccc21 (configuration not stated)	-37.6	·	·	·	0.7	10352	·
COC(=O)Nc1nc(Sc2ncc(C(F)(F)F)cc2Cl)n[nH]1	1.1	3.6	-1.0	2.3	1.2	2525	2.0
COc1ccc(/C=N/Nc2cc(N3CCOCC3)ncn2)c(OC)c1	-10.9	·	·	·	-1.0	3448	·
Cc1cc(C)nc(N(C#N)CC(=O)c2ccccc2)n1	-0.3	-3.1	10.9	19.7	2.0	4264	3.3
CC(=O)N1CCN(C(=S)NCCc2ccccc2)CC1	-21.4	3.3	6.0	2.0	-18.0	2609	-1.7
Nc1nnc(CC(=O)N/N=C/c2cccc(OCCOc3ccccc3)c2)s1	-29.8	·	·	·	3.9	2240	·
Cn1c(C(=O)N2CCCC(C(=O)c3ccc(C(F)(F)F)cc3)C2)cc(=O)n(C)c1=O (configuration not stated)	-13.3	3.0	-5.7	2.6	6.1	2664	0.9
C#CCN1CCN(c2ccc(F)cc2)CC1	-15.0	7.3	14.8	5.2	-1.1	3266	1.1
COc1ccc(N(C(=O)CNC(=O)c2cccs2)C(C(=O)NCC2CCCO2)c2ccccc2)cc1OC (configuration not stated)	-9.6	-0.5	-5.8	-8.9	-2.7	4517	2.8

One compound at a time, as listed above. Screens in order: PrP 5UTR inh, Sa ugtP lethal, Mtb hypoxia inh, Mtb hypoxia inh growth, BJeLR viability, Autofluor counter, Sa RN4220 lethal
Results for Fc1ccc(C2CCCN2Cc2nc(CC3CC3)no2)cc1 (configuration not stated) = -10.4, -0.4, 8.5, 7.3, 1.4, 4649, 2.7
Results for COC(=O)Nc1nc(Sc2ncc(C(F)(F)F)cc2Cl)n[nH]1 = 1.1, 3.6, -1.0, 2.3, 1.2, 2525, 2.0
Results for O=C(c1cc2ccccc2oc1=O)N(Cc1ccccc1)Cc1ccc2c(c1)OCO2 = -4.1, -9.8, 16.6, 2.7, 2.5, 4397, 8.6

Later entries.
SMILES	PrP 5UTR inh	Sa ugtP lethal	Mtb hypoxia inh	Mtb hypoxia inh growth	BJeLR viability	Autofluor counter	Sa RN4220 lethal
COc1ccc(CC(=O)NNS(=O)(=O)c2ccc(F)cc2)cc1	-2.1	8.6	-2.5	1.1	-5.1	5729	2.6
COc1ccccc1NS(=O)(=O)c1ccc(O)c(C(N)=O)c1	-4.6	2.6	-5.6	2.5	-7.8	9398	-2.2
O=C(NCc1nnc(SCC(=O)N2CCCCC2)o1)c1ccc(F)cc1	-16.9	4.6	-0.6	3.4	-10.4	6272	0.7
C[C@H](NC(=O)C1CCN(S(=O)(=O)c2ccccc2)CC1)C(=O)NCc1cccc(C(F)(F)F)c1	0.8	7.4	5.8	9.0	7.5	5529	1.0
CC1CN(C(=O)CN2C(=O)NC3(CCCCCCC3)C2=O)CC(C)O1 (configuration not stated)	2.3	1.7	-6.8	-8.5	2.3	8835	-1.0
COc1cc(OC)c2c(C)cc(=O)oc2c1	3.6	5.2	·	·	-1.0	3354	4.5
COc1cc(CNC(=O)c2nc(Cn3nc(C)c(Br)c3C)no2)cc(OC)c1	-8.3	0.7	9.8	4.3	4.9	4433	2.5
COCc1c(C(=O)Nc2ccc(Cl)cc2F)oc2ccccc12	-35.3	-1.1	·	·	14.4	3258	4.0

Molecules shown so far that contain an aryl thioether with sulfur outside any ring:
SMILES	PrP 5UTR inh	Sa ugtP lethal	Mtb hypoxia inh	Mtb hypoxia inh growth	BJeLR viability	Autofluor counter	Sa RN4220 lethal
Cc1cc(C)nc(SCc2nnc(SCC(=O)Nc3ncc(C)s3)n2Cc2ccco2)n1	4.5	5.9	9.6	4.1	-13.5	3349	3.7
Cc1occc1-c1nnc(SCCCC(=O)c2ccc(F)cc2)n1C	-8.4	-3.5	16.0	9.4	-2.4	2429	-9.2
Cc1[nH]nc(SCC(=O)N2CCCC2)c1[N+](=O)[O-]	-8.7	0.2	17.8	13.5	5.6	4718	4.1
CCCSc1nnc(Nc2ccccc2C)s1	-47.3	5.0	·	·	3.2	4675	6.1
COC(=O)CSc1nc2nc(-c3cccs3)cc(C(F)(F)F)c2c(=O)[nH]1	-2.6	-9.2	-1.3	1.3	-5.7	3577	3.7
O=C(CSc1c(Cl)cccc1Cl)NC1CCCc2ccccc21 (configuration not stated)	-37.6	·	·	·	0.7	10352	·
COC(=O)Nc1nc(Sc2ncc(C(F)(F)F)cc2Cl)n[nH]1	1.1	3.6	-1.0	2.3	1.2	2525	2.0
O=C(NCc1nnc(SCC(=O)N2CCCCC2)o1)c1ccc(F)cc1	-16.9	4.6	-0.6	3.4	-10.4	6272	0.7

Source: PubChem (several laboratories)
